Env fusion inh: HIV envelope-mediated fusion inhibition | 360,000 compounds, 1.1% hits | inhibition, % at 12.3 µM | HeLa-JRFL Env/CEM21 cell fusion, luciferase;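 active means mean replicate inhibition score of at least 50 and every replicate individually at or above 50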;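 further: 0% = plate neutral controls and 100% = maraviroc near 300 nM; one replicate is shown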
Yeast UUG start: modulators of start codon recognition fidelity in yeast. S. cerevisiae UUG-firefly luciferase reporter, luminescence/redox ratio. activity score, % at 18.7 µM. 350,000 compounds, 0.13% hits;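 active means replicate mean at a twofold rise or more, about +100% in these data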;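 further: firefly luciferase made from a UUG start codon reports start codon fidelity; reporter light over untreated wells divided by growth signal over untreated wells; some hits fall short of that in this replicate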
The depositor's hits bear a star; [ ] = dose if it differs, or a comment.

What do the screens show for `O=C(C1=C[C@@H](c2ccc3c(c2)OCO3)C[C@@H](OCc2ccc(CO)cc2)O1)N1CCCCC1`?
Env fusion inh: -1[16.7 µM]; Yeast UUG start: 16

What do the screens show for `Cc1noc(C)c1NC(=O)N(C)C[C@@H]1Oc2ccc(NC(=O)c3ccncc3)cc2CC(=O)N([C@H](C)CO)C[C@@H]1C`?
Env fusion inh: -35[16.7 µM]; Yeast UUG start: -14

What do the screens show for `O=C(N[C@H]1CC[C@H](CCNS(=O)(=O)c2ccccc2)O[C@@H]1CO)c1cccnc1`?
Env fusion inh: 2[16.7 µM]; Yeast UUG start: -7

What do the screens show for `CS(=O)(=O)N1[C@H](C#N)[C@@H](c2ccc(C#CC3CCCC3)cc2)[C@@H]1CO`?
Env fusion inh: -10[16.7 µM]; Yeast UUG start: -9

What do the screens show for `Cc1cc(C(=O)Nc2cccc3c2O[C@H](CN(C)C)[C@H](C)CN([C@@H](C)CO)C3=O)n(C)n1`?
Env fusion inh: -15[16.7 µM]; Yeast UUG start: 7

How did O=C(Cc1ccncc1)NCC[C@H]1CC[C@H](NC(=O)Nc2cccc(F)c2)[C@H](CO)O1 do in these assays?
Env fusion inh: 7[16.7 µM]; Yeast UUG start: 2

How did C[C@H](CO)N1C[C@H](C)[C@H](CN(C)C(=O)C2CCC2)Oc2cc(C#CCN(C)C)ccc2S1(=O)=O do in these assays?
Env fusion inh: -14[16.7 µM]; Yeast UUG start: -3

How did COc1ccc(-c2cnc3c(c2)C(=O)N([C@@H](C)CO)C[C@@H](C)[C@@H](CN(C)C(=O)Cc2ccncc2)O3)cc1 do in these assays?
Env fusion inh: -19[16.7 µM]; Yeast UUG start: -3

How did C[C@@H]1CN([C@H](C)CO)C(=O)c2cc(-c3cccnc3)cnc2O[C@@H]1CN(C)C(=O)NC1CCCC1 do in these assays?
Env fusion inh: -17[16.7 µM]; Yeast UUG start: 2

Results for C[C@H](CO)N1C[C@H](C)[C@@H](CN(C)C(=O)C2CCC2)Oc2cc(-c3cncnc3)ccc2S1(=O)=O ?
Env fusion inh: 4[16.7 µM]; Yeast UUG start: 3

Results for COc1ccc(-c2ccc([C@H]3[C@@H](C#N)N(C(=O)c4cccc(F)c4)[C@H]3CO)cc2)cc1 ?
Env fusion inh: 6[16.7 µM]; Yeast UUG start: -10

Results for COc1ccc(S(=O)(=O)N(C)C[C@H]2Oc3ccc(NS(=O)(=O)c4cn(C)cn4)cc3C(=O)N([C@@H](C)CO)C[C@H]2C)cc1 ?
Env fusion inh: 16[16.7 µM]; Yeast UUG start: -10

What do the screens show for `C[C@H]1CN([C@@H](C)CO)C(=O)Cc2cc(NS(C)(=O)=O)ccc2O[C@@H]1CN(C)Cc1ccc2c(c1)OCO2`?
Env fusion inh: 4[16.7 µM]; Yeast UUG start: 5

How did CNC[C@@H]1OCCCC[C@H](C)Oc2ccc(NS(=O)(=O)c3c(C)noc3C)cc2C(=O)N([C@@H](C)CO)C[C@H]1C do in these assays?
Env fusion inh: -2[16.7 µM]; Yeast UUG start: -9

Results for COc1ccc(NC(=O)Nc2ccc3c(c2)CC(=O)N([C@H](C)CO)C[C@H](C)[C@@H](CN(C)S(=O)(=O)c2cccs2)O3)cc1 ?
Env fusion inh: 4[16.7 µM]; Yeast UUG start: 6

What do the screens show for `O=C(Nc1ccccc1F)N[C@H]1CC[C@H](CCNS(=O)(=O)c2ccccc2)O[C@H]1CO`?
Env fusion inh: -7[16.7 µM]; Yeast UUG start: 3

What do the screens show for `C[C@@H]1CN([C@@H](C)CO)S(=O)(=O)c2ccc(Br)cc2O[C@@H]1CN(C)Cc1cncnc1`?
Env fusion inh: -43[16.7 µM]; Yeast UUG start: 2

What do the screens show for `Cc1noc(C)c1S(=O)(=O)Nc1ccc2c(c1)C(=O)N([C@@H](C)CO)C[C@@H](C)[C@@H](CN(C)CC1CC1)O2`?
Env fusion inh: 3[16.7 µM]; Yeast UUG start: 14

What do the screens show for `Cc1noc(C)c1S(=O)(=O)N(C)C[C@H]1Oc2ccc(NS(=O)(=O)c3ccc(Cl)cc3)cc2C(=O)N([C@H](C)CO)C[C@H]1C`?
Env fusion inh: -10[16.7 µM]; Yeast UUG start: 1

How did O=C(C[C@@H]1CC[C@@H]2[C@H](COC[C@@H](O)CN2C(=O)Nc2ccccc2)O1)NCc1ccncn1 do in these assays?
Env fusion inh: 3[16.7 µM]; Yeast UUG start: -4

What do the screens show for `COc1ccc(NC(=O)Nc2ccc3c(c2)C(=O)N([C@@H](C)CO)C[C@H](C)[C@H](CN(C)C(=O)Nc2ccc4c(c2)OCO4)OCCCC[C@@H](C)O3)cc1`?
Env fusion inh: -8[16.7 µM]; Yeast UUG start: -4

What do the screens show for `Cc1noc(C)c1NC(=O)N(C)C[C@@H]1OCCCC[C@@H](C)Oc2ccc(NC(=O)Nc3ccc(F)cc3)cc2C(=O)N([C@H](C)CO)C[C@H]1C`?
Env fusion inh: -8[16.7 µM]; Yeast UUG start: 1

What do the screens show for `Cc1ccc(S(=O)(=O)N[C@H]2C=C[C@@H](CC(=O)N3CCc4ccccc4C3)O[C@@H]2CO)cc1`?
Env fusion inh: -6[16.7 µM]; Yeast UUG start: -3

Results for CN1C(=O)c2cc(NC(=O)C3CCOCC3)ccc2OC[C@@H]2O[C@H](CC(=O)NC3CCCC3)CC[C@@H]21 ?
Env fusion inh: -2[16.7 µM]; Yeast UUG start: -1

How did C[C@H](CO)N1C[C@H](C)[C@@H](CN(C)S(=O)(=O)c2ccc(Cl)cc2)Oc2ccc(NS(C)(=O)=O)cc2CC1=O do in these assays?
Env fusion inh: 10[16.7 µM]; Yeast UUG start: -8

What do the screens show for `COc1cccc(C(=O)Nc2ccc3c(c2)OC[C@H](C)N(C(C)=O)C[C@H](C)[C@@H](OC)CN(C)C3=O)c1`?
Env fusion inh: 6[16.7 µM]; Yeast UUG start: 6

What do the screens show for `C[C@H](CO)N1C[C@H](C)[C@H](CN(C)S(=O)(=O)c2cn(C)cn2)Oc2ccc(NS(C)(=O)=O)cc2CC1=O`?
Env fusion inh: -2[16.7 µM]; Yeast UUG start: -13

How did C[C@H]1CN([C@@H](C)CO)C(=O)Cc2cc(NC(=O)CCC(F)(F)F)ccc2O[C@H]1CN(C)C(=O)Nc1ccc(C(F)(F)F)cc1 do in these assays?
Env fusion inh: 15[16.7 µM]; Yeast UUG start: 2

Results for CO[C@@H]1CN(C)C(=O)c2cc(NC(=O)C3CCC3)ccc2OC[C@H](C)N(Cc2ccncc2)C[C@H]1C ?
Env fusion inh: -6[16.7 µM]; Yeast UUG start: 2

What do the screens show for `C[C@H]1CCCCO[C@@H](CN(C)Cc2ccncc2)[C@@H](C)CN([C@@H](C)CO)C(=O)c2cc(NC(=O)C3CCCCC3)ccc2O1`?
Env fusion inh: -18[16.7 µM]; Yeast UUG start: 7

How did CCS(=O)(=O)Nc1ccc2c(c1)C(=O)N(C)[C@H]1CC[C@@H](CC(=O)N3CCCCC3)O[C@@H]1CO2 do in these assays?
Env fusion inh: 15[16.7 µM]; Yeast UUG start: 13

How did C[C@H](O)C#Cc1cnc2c(c1)C(=O)N([C@@H](C)CO)C[C@@H](C)[C@H](CN(C)C(=O)c1ccc(F)cc1)O2 do in these assays?
Env fusion inh: 12[16.7 µM]; Yeast UUG start: 17

Results for C[C@@H]1CN([C@H](C)CO)C(=O)c2cc(NC(=O)C3CCCCC3)ccc2O[C@@H](C)CCCCO[C@H]1CN(C)C(=O)c1ccncc1 ?
Env fusion inh: -3[16.7 µM]; Yeast UUG start: 5

How did C[C@@H]1CN([C@H](C)CO)C(=O)c2cc(NS(=O)(=O)c3ccc(Cl)cc3)ccc2O[C@@H]1CN(C)S(C)(=O)=O do in these assays?
Env fusion inh: -1[16.7 µM]; Yeast UUG start: -5

Results for CC(C)NC(=O)N(C)C[C@@H]1OCCCC[C@H](C)Oc2ccc(NC(=O)Nc3ccc(F)cc3)cc2C(=O)N([C@@H](C)CO)C[C@@H]1C ?
Env fusion inh: -27[16.7 µM]; Yeast UUG start: 11

How did N#C[C@H]1[C@@H](c2ccc(/C=C/c3ccccc3)cc2)[C@@H](CO)N1C(=O)C1CCOCC1 do in these assays?
Env fusion inh: -2[16.7 µM]; Yeast UUG start: 3

What do the screens show for `CC(=O)N(C)C[C@@H]1Oc2cc(C#Cc3ccccc3F)ccc2S(=O)(=O)N([C@H](C)CO)C[C@H]1C`?
Env fusion inh: 19[16.7 µM]; Yeast UUG start: 1

How did C[C@H](NC(=O)C[C@@H]1C[C@H]2c3cc(NC(=O)CN(C)C)ccc3O[C@H]2[C@H](CO)O1)c1ccccc1 do in these assays?
Env fusion inh: -6[16.7 µM]; Yeast UUG start: 7

What do the screens show for `COc1ccc(NC(=O)N(C)C[C@@H]2Oc3ccc(NC(=O)Nc4ccccc4)cc3CC(=O)N([C@H](C)CO)C[C@@H]2C)cc1`?
Env fusion inh: 19[16.7 µM]; Yeast UUG start: 15

What do the screens show for `CO[C@H]1CN(C)C(=O)c2ccc(NC(=O)Cc3ccccc3)cc2OC[C@H](C)N(C)C[C@H]1C`?
Env fusion inh: -1[16.7 µM]; Yeast UUG start: -6

What do the screens show for `C[C@@H]1CCCCO[C@H](CN(C)CC2CC2)[C@@H](C)CN([C@H](C)CO)C(=O)c2cc(NC(=O)Nc3ccc(F)cc3)ccc2O1`?
Env fusion inh: -15[16.7 µM]; Yeast UUG start: 19

How did CNC[C@H]1Oc2ccc(NS(=O)(=O)c3cccs3)cc2CC(=O)N([C@@H](C)CO)C[C@@H]1C do in these assays?
Env fusion inh: -8[16.7 µM]; Yeast UUG start: -7

Results for C[C@@H]1CN([C@@H](C)CO)C(=O)c2cc(NC(=O)Nc3ccc(F)cc3)ccc2O[C@@H](C)CCCCO[C@@H]1CN(C)C(=O)c1ccccc1 ?
Env fusion inh: -14[16.7 µM]; Yeast UUG start: 10

What do the screens show for `C[C@H](CO)N1C[C@H](C)[C@H](CN(C)C(=O)c2ccc3c(c2)OCO3)Oc2cc(C#Cc3ccccc3F)ccc2S1(=O)=O`?
Env fusion inh: 40[16.7 µM]; Yeast UUG start: -6

Results for COCC(=O)N(C)C[C@@H]1Oc2ncc(C#CC3(O)CCCC3)cc2C(=O)N([C@@H](C)CO)C[C@H]1C ?
Env fusion inh: -2[16.7 µM]; Yeast UUG start: 3

How did C[C@H](CO)N1C[C@H](C)[C@H](CN(C)Cc2ccncc2)OCCCC[C@H](C)Oc2ccc(NS(=O)(=O)c3cccs3)cc2C1=O do in these assays?
Env fusion inh: -6[16.7 µM]; Yeast UUG start: 0

How did O=C(C[C@@H]1CC[C@H](NC(=O)Nc2cc(F)ccc2F)[C@@H](CO)O1)NCCCN1CCOCC1 do in these assays?
Env fusion inh: -1[16.7 µM]; Yeast UUG start: -10

How did O=C(C[C@@H]1C=C[C@@H](NC(=O)CN2CCOCC2)[C@H](CO)O1)NC1CCC1 do in these assays?
Env fusion inh: 1[16.7 µM]; Yeast UUG start: -5

How did C[C@@H]1CCCCO[C@H](CN(C)S(=O)(=O)c2ccc(Cl)cc2)[C@@H](C)CN([C@H](C)CO)C(=O)c2cc(NS(=O)(=O)c3ccc(F)cc3)ccc2O1 do in these assays?
Env fusion inh: -40[16.7 µM]; Yeast UUG start: -6

How did C[C@@H]1CN([C@@H](C)CO)S(=O)(=O)c2ccc(C#Cc3ccncc3)cc2O[C@H]1CN(C)C do in these assays?
Env fusion inh: 21[16.7 µM]; Yeast UUG start: 3

How did CNC[C@H]1Oc2cc(C#Cc3cccnc3)ccc2S(=O)(=O)N([C@@H](C)CO)C[C@@H]1C do in these assays?
Env fusion inh: -13[16.7 µM]; Yeast UUG start: -5

Results for C[C@@H]1CN([C@H](C)CO)C(=O)c2cc(NC(=O)CCC(F)(F)F)ccc2O[C@@H]1CN(C)Cc1ccccc1 ?
Env fusion inh: 14[16.7 µM]; Yeast UUG start: -8

How did C[C@@H]1CCCCO[C@@H](CN(C)Cc2ccc(C(=O)O)cc2)[C@@H](C)CN([C@@H](C)CO)C(=O)c2cc(NC(=O)CCC(F)(F)F)ccc2O1 do in these assays?
Env fusion inh: -7[16.7 µM]; Yeast UUG start: 18

Results for CN(C)C(=O)C[C@H]1C=C[C@@H](NC(=O)NC2CCCCC2)[C@H](CO)O1 ?
Env fusion inh: 0[16.7 µM]; Yeast UUG start: -15

Results for CCCC#Cc1ccc2c(c1)O[C@@H](CN(C)C(=O)NC(C)C)[C@@H](C)CN([C@@H](C)CO)S2(=O)=O ?
Env fusion inh: 14[16.7 µM]; Yeast UUG start: 6

Results for C[C@@H]1CN([C@@H](C)CO)C(=O)c2cccc(NC(=O)NC3CCCCC3)c2O[C@@H]1CN(C)C(=O)Nc1ccc(F)cc1 ?
Env fusion inh: 5[16.7 µM]; Yeast UUG start: -3

5 consecutive records already listed:
Results for C[C@@H]1CN([C@H](C)CO)C(=O)c2cc(NC(=O)CCC(F)(F)F)ccc2O[C@@H]1CN(C)Cc1ccccc1 ?
Env fusion inh: 14[16.7 µM]; Yeast UUG start: -8

How did C[C@@H]1CCCCO[C@@H](CN(C)Cc2ccc(C(=O)O)cc2)[C@@H](C)CN([C@@H](C)CO)C(=O)c2cc(NC(=O)CCC(F)(F)F)ccc2O1 do in these assays?
Env fusion inh: -7[16.7 µM]; Yeast UUG start: 18

Results for CN(C)C(=O)C[C@H]1C=C[C@@H](NC(=O)NC2CCCCC2)[C@H](CO)O1 ?
Env fusion inh: 0[16.7 µM]; Yeast UUG start: -15

Results for CCCC#Cc1ccc2c(c1)O[C@@H](CN(C)C(=O)NC(C)C)[C@@H](C)CN([C@@H](C)CO)S2(=O)=O ?
Env fusion inh: 14[16.7 µM]; Yeast UUG start: 6

Results for C[C@@H]1CN([C@@H](C)CO)C(=O)c2cccc(NC(=O)NC3CCCCC3)c2O[C@@H]1CN(C)C(=O)Nc1ccc(F)cc1 ?
Env fusion inh: 5[16.7 µM]; Yeast UUG start: -3

A portion of the library; count on the stated rates, not on these rows.
